# Screens from PubChem BioAssay.
# Env fusion inh: inhibitors of HIV Env-mediated cell fusion | HeLa-JRFL Env/CEM21 cell fusion, luciferase | inhibition, % at 12.3 µM | 360,000 compounds, 1.1% hits | AID 651610;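 active means mean replicate inhibition score of at least 50 and every replicate individually at or above 50; inconclusive means only one of the two criteria met; inactive means mean below 50 and not all replicates reaching 50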;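 further: 0% = plate neutral controls and 100% = maraviroc near 300 nM; one replicate is shown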
# PABP FP inh: blocks human PABP binding to poly(A) RNA; inhibition, % at 35 µM; AID 2014; 290,000 compounds, 1% hits; fluorescence polarization;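 active means 50% or more with normal probe brightness, or confirmed in later tests; inconclusive means above 50% with abnormal brightness, or retests that disagree; inactive means below 50% or failed in later tests; about a fifth of its hits are not listed in these tables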;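 further: calls also rest on retests at 20 µM and on dose response follow-up; controls were probe without protein and protein plus probe with vehicle; some compounds called inactive have numbers as strong as hits; many hits fall short of the cut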
# MT1-MMP act inh: MT1-MMP (human) activation inhibition. AID 651647. HT1080 RFP-PRO-GFP cells, GFP/RFP ratio fluorescence, overnight; percent of plate control window, DMSO zero. P50281. GFP/RFP ratio change, % at 20 µM. 360,000 compounds, 0.061% hits;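 active means GFP/RFP ratio change of at least 30% with cell ATP level not reduced by more than half and red fluorescence within 50% of control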; further: strong numbers were not always called active
#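 Assay system – RFP-PRO-GFP reporter HT1080 cells · Compound dosing – single dose of 20 µM compound, 1% DMSO final · Incubation – overnight compound exposure at 37 °C · Measure – GFP/RFP fluorescence ratio · Benchmarks – DMSO wells and RFP-L50D-GFP cells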
# eIF4H inh: inhibitors of RNA binding by human eIF4H; eIF4H fluorescence polarization binding assay; 290,000 compounds, 0.94% hits; inhibition, % at 35 µM; Q15056;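 active means 50% or more with normal probe brightness, or confirmed in later tests; inconclusive means above 50% with abnormal brightness, or retests that disagree; inactive means below 50% or failed in later tests; about a fifth of its hits are not listed in these tables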;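 further: calls also rest on retests at 20 µM and on dose response follow-up; 0% = protein and probe with vehicle and 100% = probe without protein; strong numbers were not always called active; many hits fall short of the cut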
# UUG fidelity: alters start codon recognition fidelity in yeast. S. cerevisiae UUG-firefly luciferase reporter, luminescence/redox ratio. activity score, % at 18.7 µM. 350,000 compounds, 0.13% hits;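 active means replicate mean at a twofold rise or more, about +100% in these data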;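 further: firefly luciferase made from a UUG start codon reports start codon fidelity; reporter light over untreated wells divided by growth signal over untreated wells; some hits fall short of that in this replicate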
# CSC inhib: cancer stem cell inhibition; cancer stem cell-like cells viability, luminescence; inhibition, % at 7.5 µM; 300,000 compounds, 1.1% hits; AID 2717;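 active means mean at 75% or more and at least half the replicates too; inconclusive means mean and replicates disagree; tested in HMLE shEcad cells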;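 further: 0% = median of negative and 100% = median of positive control wells; the first replicate is given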
# Rce1 inh: inhibitors of yeast Ras-converting enzyme; Q03530; yeast membranes, quenched prenylated peptide cleavage fluorescence; calls only; 290,000 compounds, 0.27% hits; AID 2563;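 active means fall in fluorescence gain of 50% or more versus controls, with final raw signal at or below 3038400; inconclusive means same 50% fall but final raw signal above 3038400; inactive means fall in fluorescence gain under 50%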;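 further: plate controls were neutral control wells for no effect and wells lacking membranes for full effect; tested at 10 µM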
# Target sequence (Q03530 whole entry, looked up): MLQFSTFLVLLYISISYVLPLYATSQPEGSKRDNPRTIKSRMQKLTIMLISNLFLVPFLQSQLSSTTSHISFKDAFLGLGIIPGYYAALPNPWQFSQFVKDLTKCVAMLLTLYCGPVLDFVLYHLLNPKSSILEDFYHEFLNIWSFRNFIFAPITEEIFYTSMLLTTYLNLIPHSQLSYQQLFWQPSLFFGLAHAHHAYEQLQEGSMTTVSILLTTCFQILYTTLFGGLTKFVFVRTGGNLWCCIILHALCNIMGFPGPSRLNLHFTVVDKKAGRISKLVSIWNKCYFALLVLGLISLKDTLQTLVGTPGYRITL
# MT1-MMP act inh RFP: also measured in MT1-MMP act inh; calls as there; RFP signal change, %; measured here: RFP expression control read;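 0 = vehicle wells; hits needed this value within 50% of zero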
# * = called active by the depositor; i = inactive; ? = inconclusive; nt = not tested or not shown; & = joins results of further samples; [ ] = remark or other dose. This is a subset, so the mix of outcomes need not match the whole.
SMILES,Env fusion inh,PABP FP inh,MT1-MMP act inh,MT1-MMP act inh RFP,eIF4H inh,UUG fidelity,CSC inhib,Rce1 inh
O=C(O)c1cccnc1C(=O)c1ccccc1,1.2,nt,3.1,5.1,nt,-6.8,6.2,i
O=C(O)CCN1CCOCC1,nt,0.3,1.0,6.1,-2.9,-13.3,-6.1,i
CC(=O)c1ccc(OC(C)C(=O)OCC(=O)NCCc2ccccc2)cc1 (centres undefined),-5.9,nt,7.4,1.6,nt,-9.3,nt,nt
CC1CC(C)C(=O)C(C(CC2CC(=O)NC(=O)C2)OC(=O)CC(=O)c2ccccc2)C1 (centres undefined),?,nt,-55.9,-32.6,nt,38.9,nt,nt
Oc1ccc(/C=N/Nc2nc(N3CCCC3)nc(N3CCCC3)n2)cc1O,2.8,2.0,1.5,-5.7,-0.3,2.2,11.6,i
CCCCC(=O)Nc1ccc2c(c1)nc(CCNC(=O)c1ccco1)n2C,-7.2,-2.2,2.5,4.1,-0.1,nt,-31.5,i
COc1ccc(/C=C/C(=O)OCC(=O)N(C)c2c(N)n(Cc3ccccc3)c(=O)[nH]c2=O)cc1OC,13.3,nt,2.4,3.7,nt,3.6,nt,nt
Cc1cc(C(=O)Nc2c[nH]c(=O)[nH]c2=O)ccc1[N+](=O)[O-],-9.0,11.4,1.5,3.4,2.0,nt,-0.5,i
COc1ccc(Cl)cc1-c1nc(SCC(=O)N(C)C2CCS(=O)(=O)C2)n[nH]1 (centres undefined),10.3,nt,-2.7,2.5,nt,-10.5,-15.8,nt
CC(C)N(Cc1ccccc1)C(=O)CSc1nccn1C,4.5,-1.1,0.1,4.1,32.0,nt,9.2,i
CC1CC(OC(=O)c2ccccc2C(=O)c2ccc(Cl)cc2)C(=O)O1 (centres undefined),-5.1,nt,-2.9,1.4,nt,-6.2,8.7,nt
CC(C)(C)NC(=O)CCn1nc(-c2ccc(Cl)cc2)c2ccccc2c1=O,nt,-5.1,-2.0,-2.0,-14.4,-3.2,-11.0,i
COc1ccc2c3c([nH]c2c1)C(C)N(C(C)=O)CC3 (centres undefined),8.9,-3.2,5.1,-0.7,5.3,-6.5,-4.5,i
O=C(NC1=NCCS1)c1cccc(OC(F)F)c1,-44.9,2.1,-0.3,-0.7,7.8,nt,nt,i
NC(=O)c1ncn([C@@H]2O[C@H](CNCc3cccn3-c3ccncc3)[C@@H](O)[C@H]2O)n1,11.0,nt,2.1,-1.4,nt,-12.5,nt,nt
Cc1ccnc2nc(C(=O)OCC(=O)NC(=O)NCc3ccco3)nn12,2.9,5.0,1.2,4.5,-1.3,nt,6.3,i
COc1cc2c(cc1NC(=O)C(C)N1CCN(S(=O)(=O)c3ccc(C)c(C)c3)CC1)oc1ccccc12 (centres undefined),-3.3,-6.8,2.5,-4.3,2.5,-15.5,11.1,i
O=C(Nc1ccccc1N1CCN(C(=O)c2ccc(Cl)cc2)CC1)c1ccc(Br)cc1,-94.4,-12.8,-3.2,-8.8,-10.9,-4.8,-3.0,i
COc1ccccc1C(=O)Nc1ccc(CN2CCCCC2)cc1,5.6,7.2,-2.0,1.5,-1.1,-5.0,4.1,i
COc1cc(NCc2ccccc2)c2ncn(C(C)C)c2c1,nt,nt,1.4,-3.5,nt,19.5&-5.3,-5.6,nt
CC(=O)c1cccc(Nc2nc(=O)c3cccnc3s2)c1,-55.1,-1.3,2.2,4.1,-3.4,-19.0,nt,i
Cc1cccc(NC(=O)c2oc(=O)c3ccccc3c2-c2ccccc2)c1C,nt,1.4,0.8,-6.0,-3.1,nt,4.8,i
C=CCN=c1scc(-c2ccccc2)n1/N=C/c1ccccn1,-2.0&-27.6,2.1,2.0&-2.7,-13.4&-8.5,5.5,-7.3&-8.9,40.4,i
CCCCC(c1nnnn1C(C)C)N1CCN(C(=O)c2ccco2)CC1 (centres undefined),-3.6,8.3,-0.5,-1.4,31.1,-0.1,1.8,i
COc1ccccc1N1CCN(Cc2cc(=O)c(OCC(=O)NC(C)C)co2)CC1,-2.6,4.1,0.0,1.9,-1.7,5.3,-13.3,i
CCCSc1nsc(NC(=O)Nc2ccc(F)cc2F)n1,1.8,3.2,-2.2,-35.1,2.9,-24.8,95.4*,i
C/C(=C\C(=O)OCCCCCCCCC(=O)O)C[C@@H]1OC[C@H](C[C@@H]2O[C@H]2[C@@H](C)[C@H](C)O)[C@@H](O)[C@H]1O,-28.6,nt,0.1,-0.4,nt,0.6,-10.2,i
Nc1nonc1-n1nnc(C(=O)N/N=C/c2cccs2)c1CSc1ccccc1,-2.7,9.2,-8.4,1.8,12.5,-13.0,-10.1,i
N#Cc1c(-c2ccc3c(c2)OCO3)cc[nH]c1=O,nt,2.7,-7.1,-3.4,-10.6,-11.9,-20.9,i
COC(=O)C1=C(O)C(C(=O)OC)C(c2ccc(C)cc2)C(C#N)(C#N)C1c1ccc(C)cc1 (centres undefined),40.1,7.4,-19.8,-12.4,-2.6,-1.8,32.9,i
CCN1CCN(C(=O)/C=C/c2ccc(C)o2)CC1,-10.3,-0.3,0.1,3.6,18.9,nt,-2.2,i
CNC(=O)/C(C#N)=C/c1c(N2CCCCCC2)nc2c(C)cccn2c1=O,8.6,14.0,-0.5,2.4,-6.3,-5.5,-7.0,i
N#CC1=C(N)S[C@H](C(=O)C23CC4CC(CC(C4)C2)C3)[C@H]1c1ccncc1,nt,4.3,-5.2,-5.9,-7.4,-12.6,30.3,i
C[C@H](CO)N1C[C@H](C)[C@H](CN(C)C(=O)c2ccc(N3CCN(C)CC3)cc2)OCc2cnnn2CCCC1=O,-9.1,nt,2.3,5.2,nt,-16.3&5.1,nt,nt
COc1ccc2nc(Cl)c(/C=N/Nc3ccccn3)cc2c1,-24.4,16.3,-2.7,-0.7,11.4,28.8,7.5,i
N/C(CC1CC1(Cl)Cl)=N\OC(=O)c1ccccc1 (centres undefined),-3.4,-2.2,2.1,-1.2,-14.9,0.6,4.0,i
C[C@@H]1CN([C@@H](C)CO)C(=O)c2cc(NC(=O)Nc3ccc(F)cc3)ccc2O[C@@H]1CN(C)Cc1ccc(Oc2ccccc2)cc1,11.1[16.7 µM],nt,-4.2,-9.3,nt,-4.1&6.8,137.4*,nt
O=C(OCCN1CCOCC1)c1ccc(O)cc1,-4.5,-12.1,-0.1,2.0,-3.4,-16.3,-29.1,i
Cc1onc(-c2ccccc2)c1C(=O)NNC(=S)NC(=O)/C=C/c1ccccc1,nt,3.0,-0.9,-6.5,12.1,nt,7.4,i
CCN1C[C@@H]2[C@@H]3C(=O)N(Cc4ccccc4)C(=O)[C@@H]3[C@](CC)(C1=O)N2C(=O)c1ccccc1,-2.2,nt,1.9,1.5,nt,2.3,nt,nt
O=C(c1ccco1)N1CCN(C(=O)c2cc3sccc3n2Cc2ccccc2)CC1,20.0,0.6,-4.8,-11.2,-3.5,3.7,3.5,i
COc1cccc(/C=C/C(=O)OCC(=O)N2c3ccccc3CC2C)c1 (centres undefined),12.1,nt,2.3,1.7,nt,-5.8,nt,nt
COc1cc(OC)c(N(C)S(=O)(=O)c2cccc(C(=O)OCC(=O)N(C)C3CCCCC3)c2)cc1Cl,7.4,nt,1.3,-16.6,nt,-13.9,nt,nt
CCO[C@@H]1OC(C(=O)N2CCN(Cc3ccccc3)CC2)=C[C@H](C2CC2)[C@H]1CCCO,6.0,7.0,0.7,4.7,-1.4,-1.4,-2.3,i
CCn1c(SCC(N)=O)nnc1-c1ccc2c(c1)OCO2,0.4,-1.1,-0.7,3.4,6.3,nt,-5.3,i
Cc1cc(-c2ccc(C)c(S(=O)(=O)Nc3ccc(S(N)(=O)=O)cc3)c2)on1,6.1,1.8,0.6,-0.7,-19.4,-11.3,-0.8,i
COc1ccc2nc(NC(=O)C3CCN(S(=O)(=O)c4cccc5nsnc45)CC3)sc2c1,80.5*,-19.0,8.5,-18.7,-5.4,-10.4,37.8,nt
COc1ccc(CCNC(=O)CCCOc2ccc(Cl)cc2)cc1OC,18.7,2.5,4.2,-9.3,1.1,-14.8,-2.5,i
O=C(COC(=O)CNC(=O)c1ccccc1)NCc1ccc2c(c1)OCO2,-0.4,nt,-0.8,5.4,nt,-11.7,-10.7,nt
NC(=O)C1CCN(CCC(=O)Nc2cccc(Cl)c2)CC1,-55.3,2.6,-2.7,1.7,-1.5,-11.1,3.2,i

# New compounds follow
SMILES,Env fusion inh,PABP FP inh,MT1-MMP act inh,MT1-MMP act inh RFP,eIF4H inh,UUG fidelity,CSC inhib,Rce1 inh
COC(=O)c1cccc(C23CC4(C2)[C@H](CN(CC2CCCCC2)[C@@H]4c2ccccc2)C3c2ccccc2)c1 (some centres undefined),-28.5,-11.7,2.0,-4.3,-4.7,-8.9,31.4,i
O=C(CSc1nnc(-c2ccccn2)o1)Nc1ccccc1Cl,-26.5,4.5,1.8,-0.1,-2.9,-19.4,4.3,i
CCCCC(=O)Nc1ccc2c3c(cccc13)C(=O)N2CC,32.6,-6.4,13.4,8.9,-9.8,nt,3.8,i
Cc1ccc(-n2c(-c3ccco3)nc3c(cnn3-c3ccc(C)cc3)c2=O)cc1,19.9,-11.9,0.8,-1.5,-1.0,-25.8,5.2,i
COC(=O)c1ccc2nc(-c3cccc(Br)c3)c(Cc3ccc(OC)cc3C)n2c1,-25.7,nt,-9.4,-1.4,nt,7.7,nt,nt
COc1ccc2c(c1OC)C(=O)N1N=C(c3ccc(Cl)cc3)CC21 (centres undefined),-24.5,0.7,0.3,-7.8,1.0,-1.1,nt,i
O=C(COc1ccc(C(=O)NCCc2ccccc2)cc1)Nc1ccccc1,-25.7,-11.9,2.9,6.7,-2.2,nt,-2.0,i
N#Cc1cccc(C(=O)OCC(=O)NCc2ccco2)c1,nt,-8.1,-2.5,4.4,-11.7,-6.4,-11.5,i
COc1ccc(NC(=O)/C=C/c2ccccc2)c([N+](=O)[O-])c1,-125.4,2.8,4.3,-0.4,-7.4,nt,6.6,i
CCSc1nc(N)c(NC(=O)c2ccc(Br)o2)c(=O)[nH]1,nt,8.7,1.4,0.8,-10.7,-2.1,-0.9,i

# Overlap with the part before: 2 entries, followed by the next part.
SMILES,Env fusion inh,PABP FP inh,MT1-MMP act inh,MT1-MMP act inh RFP,eIF4H inh,UUG fidelity,CSC inhib,Rce1 inh
COc1ccc(NC(=O)/C=C/c2ccccc2)c([N+](=O)[O-])c1,-125.4,2.8,4.3,-0.4,-7.4,nt,6.6,i
CCSc1nc(N)c(NC(=O)c2ccc(Br)o2)c(=O)[nH]1,nt,8.7,1.4,0.8,-10.7,-2.1,-0.9,i
CCOC(=O)C(=O)N1c2ccccc2C(N(C(=O)C(=O)OCC)c2ccccc2)CC1C (centres undefined),3.0,4.9,-0.8,2.6,3.0,-12.3,-13.5,i
CCn1c(CNC(=O)c2cccc(C)c2)nnc1SCC(=O)Nc1cccc(OC)c1,29.7,3.5,-1.1,1.5,-1.5,-17.5,-5.0,i
CC(=O)c1ccc(N(CC(=O)NCc2ccc3c(c2)OCO3)C(=O)c2csnn2)cc1,4.6,5.9,0.3,1.7,-14.1,11.8,1.2,nt
CC(C)n1ncc2c(C(=O)NCCc3ccc(F)cc3)cc(C3CC3)nc21,11.5,nt,-0.1,-2.9,nt,8.0,nt,nt
COc1cc(C2SCC(=O)N2c2c(C)n(C)n(-c3ccccc3)c2=O)ccc1O (centres undefined),-7.0,-5.8,-1.0,1.4,28.9,-20.0,-2.2,i
CC(NC(=O)CN1C(=O)NC2(CCCCCC2)C1=O)c1ccccc1 (centres undefined),nt,nt,1.5,-0.2,nt,-4.0,-6.1,nt
Cc1cccc(OCCSc2nnc(-c3ccoc3C)n2C)c1,-2.6,-10.6,3.5,-0.2,-4.3,-15.9,11.3,i
